# Screening data deposited in PubChem BioAssay by several laboratories.
# MT1-MMP act inh: inhibitors of human MT1-MMP activation; P50281; HT1080 RFP-PRO-GFP cells, GFP/RFP ratio fluorescence, overnight; percent of plate control window, DMSO zero; GFP/RFP ratio change, % at 20 µM; 360,000 compounds, 0.061% hits;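 active means GFP/RFP ratio change of at least 30% with cell ATP level not reduced by more than half and red fluorescence within 50% of control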; further: strong numbers were not always called active
#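 Test system: HT1080 cells expressing an RFP-PRO-GFP fluorescent reporter construct / Compound dosing: single-point 20 µM compound, 1% DMSO / Schedule: cells overnight before dosing, compound overnight, 37 °C, 5% CO2 / Evaluation: GFP/RFP fluorescence ratio / Control set: DMSO and RFP-L50D-GFP cell wells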
# Yeast UUG start: modulators of start codon recognition fidelity in yeast; S. cerevisiae UUG-firefly luciferase reporter, luminescence/redox ratio; activity score, % at 18.7 µM; 350,000 compounds, 0.13% hits;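 active means replicate mean at a twofold rise or more, about +100% in these data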;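 further: firefly luciferase made from a UUG start codon reports start codon fidelity; reporter light over untreated wells divided by growth signal over untreated wells; some hits fall short of that in this replicate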
# HIV Env fusion: HIV envelope-mediated fusion inhibition; HeLa-JRFL Env/CEM21 cell fusion, luciferase; inhibition, % at 12.3 µM; 360,000 compounds, 1.1% hits; AID 651610;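 active means mean replicate inhibition score of at least 50 and every replicate individually at or above 50; inconclusive means only one of the two criteria met; inactive means mean below 50 and not all replicates reaching 50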;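 further: 0% = plate neutral controls and 100% = maraviroc near 300 nM; one replicate is shown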
# PABP FP inh: blocks human PABP binding to poly(A) RNA; P11940; fluorescence polarization; inhibition, % at 35 µM; 290,000 compounds, 1% hits;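 active means 50% or more with normal probe brightness, or confirmed in later tests; inconclusive means above 50% with abnormal brightness, or retests that disagree; inactive means below 50% or failed in later tests; about a fifth of its hits are not listed in these tables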;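 further: calls also rest on retests at 20 µM and on dose response follow-up; controls were probe without protein and protein plus probe with vehicle; some compounds called inactive have numbers as strong as hits; many hits fall short of the cut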
# Target sequence (P11940 whole entry, looked up): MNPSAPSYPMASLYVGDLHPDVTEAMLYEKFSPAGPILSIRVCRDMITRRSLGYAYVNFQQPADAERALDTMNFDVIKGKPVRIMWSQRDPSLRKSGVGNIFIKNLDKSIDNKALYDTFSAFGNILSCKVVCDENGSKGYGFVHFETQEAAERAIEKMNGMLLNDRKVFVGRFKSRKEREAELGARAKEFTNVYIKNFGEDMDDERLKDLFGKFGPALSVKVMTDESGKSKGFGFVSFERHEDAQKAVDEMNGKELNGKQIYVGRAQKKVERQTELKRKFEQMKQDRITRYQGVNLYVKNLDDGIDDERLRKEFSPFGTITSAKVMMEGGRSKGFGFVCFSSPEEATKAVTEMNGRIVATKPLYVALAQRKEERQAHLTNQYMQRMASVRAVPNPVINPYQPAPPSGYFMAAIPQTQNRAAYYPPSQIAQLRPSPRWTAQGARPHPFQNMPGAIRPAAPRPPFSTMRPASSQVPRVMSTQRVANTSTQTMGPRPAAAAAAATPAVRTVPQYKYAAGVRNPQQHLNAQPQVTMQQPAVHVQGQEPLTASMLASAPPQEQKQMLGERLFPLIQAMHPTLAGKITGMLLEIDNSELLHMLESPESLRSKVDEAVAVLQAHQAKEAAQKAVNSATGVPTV
# eIF4H FP inh: inhibitors of RNA binding by human eIF4H | Q15056 | eIF4H fluorescence polarization binding assay | inhibition, % at 35 µM | 290,000 compounds, 0.94% hits | AID 2012;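 active means 50% or more with normal probe brightness, or confirmed in later tests; inconclusive means above 50% with abnormal brightness, or retests that disagree; inactive means below 50% or failed in later tests; about a fifth of its hits are not listed in these tables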;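 further: calls also rest on retests at 20 µM and on dose response follow-up; 0% = protein and probe with vehicle and 100% = probe without protein; strong numbers were not always called active; many hits fall short of the cut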
# Rce1 inh: blocks yeast Ras-converting enzyme; yeast membranes, quenched prenylated peptide cleavage fluorescence; calls only; 290,000 compounds, 0.27% hits; AID 2563;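 active means fall in fluorescence gain of 50% or more versus controls, with final raw signal at or below 3038400; inconclusive means same 50% fall but final raw signal above 3038400; inactive means fall in fluorescence gain under 50%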;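 further: plate controls were neutral control wells for no effect and wells lacking membranes for full effect; tested at 10 µM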
# Target sequence (Q03530 whole entry, looked up): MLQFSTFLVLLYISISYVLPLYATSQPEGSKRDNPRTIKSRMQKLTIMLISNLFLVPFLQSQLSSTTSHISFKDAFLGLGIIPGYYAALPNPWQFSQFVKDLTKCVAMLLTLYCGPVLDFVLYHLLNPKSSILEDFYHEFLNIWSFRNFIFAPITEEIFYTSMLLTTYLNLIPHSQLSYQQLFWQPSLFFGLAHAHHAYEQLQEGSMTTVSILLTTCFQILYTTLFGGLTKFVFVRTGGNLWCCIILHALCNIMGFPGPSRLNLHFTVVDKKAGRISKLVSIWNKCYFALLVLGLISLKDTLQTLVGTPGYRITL
# CSC inhib: blocks cancer stem cells | cancer stem cell-like cells viability, luminescence | inhibition, % at 7.5 µM | 300,000 compounds, 1.1% hits;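 active means mean at 75% or more and at least half the replicates too; inconclusive means mean and replicates disagree; tested in HMLE shEcad cells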;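 further: 0% = median of negative and 100% = median of positive control wells; the first replicate is given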
# MT1-MMP act inh RFP: recorded beside MT1-MMP act inh, whose call it bears; RFP signal change, %; measured here: RFP expression control read;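 0 = vehicle wells; hits needed this value within 50% of zero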
# * hit, by the source's call; i = inactive; ? = inconclusive; nt = not tested or not shown; & = joins results of further samples; [ ] = dose if it differs, or a comment. Only part of the results is shown; rates above refer to the full screens.
SMILES,MT1-MMP act inh,MT1-MMP act inh RFP,Yeast UUG start,HIV Env fusion,PABP FP inh,eIF4H FP inh,Rce1 inh,CSC inhib
CS(=O)(=O)Nc1ccccc1C(=O)NCC1(N2CCCCC2)CCCCC1,-3,2,-9,-3,2,4,i,-5
C[C@H]1CN([C@@H](C)CO)C(=O)Cc2cc(NS(C)(=O)=O)ccc2O[C@@H]1CN(C)CC1CC1,0,1,-7&-8,-1[16.7 µM],nt,nt,nt,nt
O=C(CN1C2=NCCN2c2ccccc21)c1ccc2c(c1)OCO2,-4,4,-9,nt,-2,0,i,-3
Cc1ccc(NC(=O)COC(=O)C(CC(C)C)N2C(=O)C3CC=CCC3C2=O)c(C)c1 (stereo not given),0,2,nt,-19,10,1,i,1
Nc1nc(=S)c2ncn(C3OC(CO)C(O)C3O)c2[nH]1 (stereo not given),-6,-11,-19,15,53*,89*,i,90*
COc1ccc(Cc2nnc(N/N=C(\C)c3ccccc3)[nH]c2=O)cc1OC,-3,-7,nt,18,-3,-1,i,-17
Cc1ccccc1NC(=O)C(=O)NCC1CCCN1S(=O)(=O)c1cccs1 (stereo not given),4,2,-7,5,nt,nt,i,-12
COc1ccc(-c2csc(NCCc3nc4cc(C(=O)NCCCO)ccc4n3Cc3ccc(C)cc3)n2)cc1,1,2,-17,0,nt,nt,i,23
CCOc1ccc(N=C(NC#N)SC)cc1,0,1,0,8,4,1,i,7
O=C1CC2(CCN(C(=O)c3c(F)cccc3F)CC2)Oc2ccccc21,-2,1,6,19,nt,nt,i,-14
CC(=O)Nc1ccc(S(=O)(=O)Nc2nccc(/C=C/c3ccccc3F)n2)cc1,0,-2,nt,21,-1,-16,i,-5
O=C(COC(=O)C1(c2ccccc2F)CCCC1)NCc1cccs1,-1,-1,nt,-11,-11,0,i,-1
NC(=O)C1CCN(c2nc(-c3cc4ccccc4o3)cs2)CC1,0,-1,4,-15,nt,nt,nt,nt
Cc1ccc(S(=O)(=O)N2CCOCC2)cc1NC(=O)COC(=O)c1ccc2c(c1)OCO2,0,-2,4,-4,-3,1,i,-1
CC12CN3CC(C)(CN(C1)C3c1ccc(Cl)cc1Cl)C2=O (stereo not given),-1,0,-10,-35,-7,-13,i,-11
CCOC(=O)C1CCCN(C2=NC(=O)/C(=C/c3ccc(O)c(OCC)c3)S2)C1 (stereo not given),-40,-3,-1,-5,-6,29,i,1
CCOC(=O)c1c(C)[nH]c(C(=O)COC(=O)/C=C/c2ccc(OCC#N)c(OC)c2)c1C,0,1,-5,-12,-5,2,i,-11
C=CCn1c(SCc2cccc3ccccc23)nnc1-c1cccnc1,4,-1,-11,nt,-3,-4,i,-7
CCOC(=O)c1oc2c(CN3CCN(C)CC3)c(O)c(CC)cc2c(=O)c1-c1nc2ccccc2s1,5,4,-15,0,nt,nt,nt,nt
N#C/C=C/N1CCC(Cc2ccccc2)CC1,-4,0,-10,-10,-9,-1,i,17
Clc1ccc(CN2CCN(c3ncccn3)CC2)cc1,1,-5,-4,-5,14,16,i,0
O=C1C2CCCN2C(=O)N1CCCN1CCN(c2ccc([N+](=O)[O-])cc2)CC1 (stereo not given),3,-1,-11,-1,1,-10,i,3
COc1ccc(OC)c(C2=NOC(C(=O)NCc3ccccn3)C2)c1 (stereo not given),2,3,-5,-92,-4,-8,i,-12
O=C(CSc1nnc2ccccn12)NCc1cccs1,0,4,-17,nt,-5,0,i,-15
CCCc1cc(C(=O)NNC(=S)NC2CCCCC2)cs1,4,-5,-39,21,-6,0,nt,-4

# Reprinted at random: 2 compounds from above
SMILES,MT1-MMP act inh,MT1-MMP act inh RFP,Yeast UUG start,HIV Env fusion,PABP FP inh,eIF4H FP inh,Rce1 inh,CSC inhib
CS(=O)(=O)Nc1ccccc1C(=O)NCC1(N2CCCCC2)CCCCC1,-3,2,-9,-3,2,4,i,-5
NC(=O)C1CCN(c2nc(-c3cc4ccccc4o3)cs2)CC1,0,-1,4,-15,nt,nt,nt,nt

# (listing goes on)
SMILES,MT1-MMP act inh,MT1-MMP act inh RFP,Yeast UUG start,HIV Env fusion,PABP FP inh,eIF4H FP inh,Rce1 inh,CSC inhib
CS(=O)(=O)N(CC(O)CON=C1c2ccccc2-c2ccccc21)c1ccc(F)cc1 (stereo not given),-5,-7,-9,nt,-1,-2,i,nt
CCOC(=O)c1c(NC(=O)COC)sc(C)c1C,1,5,-8,nt,6,5,i,-2
COc1cc(/C=N/NC(=O)c2ccoc2C)ccc1O,5,4,nt,-43,-24,3,i,-1
O=C(c1ccc([N+](=O)[O-])cc1)N1CCN(c2cccc3[nH]ccc23)CC1,-1,0,nt,-8,4,-11,i,26
NC(=O)C1CCN(c2oc(/C=C/c3ccc(F)cc3)nc2S(=O)(=O)c2ccccc2)CC1,-5,-3,-16,8,-14,-10,i,-26
CCCCc1nnc(NC(=O)c2ccc3c(=O)n4c(nc3c2)CCC4)s1,2,2,-12,-16,nt,nt,i,-8
O=C(Nc1ccc(C(=O)N2CCCCC2)cc1)C1CC1,2,6,-6,-11,nt,nt,nt,nt
Cc1ccc(NC(=O)COc2ccc(C(=O)c3ccccc3)cc2)c(O)c1,1,-6,-17,18,1,-3,i,2
O=c1c2[nH]c3ccccc3c2ncn1CCN1CCOCC1,-1,1,nt,11,0,2,i,-4
COc1ccc(OC)c(NC(=O)CSc2nnc(CNC(=O)c3cccs3)o2)c1,-5,2,-5,-11,-1,-4,i,-11
O=C(C[C@H]1C[C@H](C(=O)N2CCCCC2)[C@@]2(CCc3ccccc3)c3[nH]c4ccc(Cl)cc4c3CCN2C1=O)NCc1cccc(C(F)(F)F)c1,-36,-35,-15,34,nt,nt,nt,nt
CCN(CC)S(=O)(=O)c1ccc(OC)c(NC(=S)Nc2cccc(C)c2)c1,nt,nt,nt,nt,17,1,i,-5
CCCN=C(N)/C(C(=O)OCC)=C(\O)c1ccc(OC)cc1,4,4,nt,23,8,16,i,-8
CC(C)CNC(=S)N1CCN(c2nc3ccccc3s2)CC1,7,-8,nt,-22,14,29,i,1
COc1cccc(C(=O)NC2CC3CCCC(C2)N3CC(=O)Nc2ccccc2)c1 (stereo not given),1,-8,-7,-33,7,8,i,-15
Cc1nc2ccc(NC(=O)c3ccco3)cc2nc1C,-2,4,nt,-4,-3,-2,i,6
COc1cc(NC(=O)c2ccccc2)c(OC)cc1NC(=O)Cc1ccc(C)cc1,4,6,-11,4,3,-4,i,-8
COc1ccc(C(=O)COC(=O)c2ccccn2)c(OC)c1,1,4,-26,28,nt,nt,nt,-5
N#CC1=C(N)Oc2c(O)cc3ccccc3c2C1c1ccsc1 (stereo not given),-2,-3,nt,52,11,17,nt,67
COc1ccc2c(c1)NC(C)(C)C=C2C,6,9,-4,-11,3,19,i,-3
Cc1ccc(N2NC(=O)/C(=C/c3ccc(-c4ccc(Cl)c(C(=O)O)c4)o3)C2=O)cc1,-5,1,-19,1,31,46,i,nt
Cc1ccc(-c2cc(C(F)F)n3ncc(C(=O)N4CCCCC4c4cccnc4)c3n2)cc1 (stereo not given),-3,-1,nt,-8,14,-2,i,-13
C[C@@H]1NC(=O)[C@H](CC(N)=O)NC(=O)c2cc([N+](=O)[O-])cc(I)c2OCC[C@@H](C(=O)NC(CC(=O)O)C(N)=O)NC1=O (stereo not given in full),nt,nt,nt,-2,10,19,nt,-5
Cc1cc2[nH]c(=O)c(=O)[nH]c2cc1S(=O)(=O)NCc1ccc(Cl)cc1,0,3,6,nt,0,-20,i,nt
COC(=O)[C@@H](NC(=O)NC(C)CCc1ccccc1)C(C)C (stereo not given in full),6,1,-12,nt,-1,2,i,7
SMILES,MT1-MMP act inh,MT1-MMP act inh RFP,Yeast UUG start,HIV Env fusion,PABP FP inh,eIF4H FP inh,Rce1 inh,CSC inhib
CCN(CC(=O)N1CCN(C)CC1)S(=O)(=O)c1ccc(Cl)cc1,-1,4,-2,nt,2,7,i,-3
CC(C)(C)c1ccc(NC(=O)CSc2nnc(-c3n[nH]c4ccccc34)o2)cc1,1,-4,nt,4,3,37,i,59
CC(=O)NNC(=S)NC(=O)C(c1ccccc1)c1ccccc1,4,0,nt,24,2,15,i,3
CCc1nnc(NC(=O)c2cc([N+](=O)[O-])ccc2N2CCOCC2)s1,5,0,-1,nt,nt,nt,i,-14
CC1CC1C(=O)OCC(=O)Nc1ccccc1Oc1ccccc1 (stereo not given),3,4,nt,11,1,1,i,-11
Cc1cc(C)cc(N(C(=O)c2ccccn2)C(C(=O)NC2CCCCC2)c2cccs2)c1 (stereo not given),5,5,0,-48,-5,-8,i,nt
CCOc1ccc(N2C(=O)CC(N)C2=O)cc1 (stereo not given),2,5,-16,nt,-9,3,i,-3
Cc1cc(-c2cc(NC=O)c3ncc(-c4cccc(C(=O)NCCN(C)C)c4)n3c2)cc(C)c1O,0,2,-9,?,nt,nt,nt,nt
COc1ccccc1C(=O)NC(=O)COC(=O)CN1C(=O)NC(C)(C)C1=O,1,5,-5,-8,nt,nt,i,8

# Compound profiles (already shown). Values in the order: MT1-MMP act inh | MT1-MMP act inh RFP | Yeast UUG start | HIV Env fusion | PABP FP inh | eIF4H FP inh | Rce1 inh | CSC inhib
# Cc1cc(C)cc(N(C(=O)c2ccccn2)C(C(=O)NC2CCCCC2)c2cccs2)c1 (stereo not given) across the screens: 5 | 5 | 0 | -48 | -5 | -8 | i | nt
# CCN(CC(=O)N1CCN(C)CC1)S(=O)(=O)c1ccc(Cl)cc1 across the screens: -1 | 4 | -2 | nt | 2 | 7 | i | -3
# CCc1nnc(NC(=O)c2cc([N+](=O)[O-])ccc2N2CCOCC2)s1 across the screens: 5 | 0 | -1 | nt | nt | nt | i | -14
# COc1ccccc1C(=O)NC(=O)COC(=O)CN1C(=O)NC(C)(C)C1=O across the screens: 1 | 5 | -5 | -8 | nt | nt | i | 8
# CC(C)(C)c1ccc(NC(=O)CSc2nnc(-c3n[nH]c4ccccc34)o2)cc1 across the screens: 1 | -4 | nt | 4 | 3 | 37 | i | 59
